# Mtb hypoxia rep: Mtb hypoxia fluorescent reporter inhibition | 0.1% of 300,000 active | M. tuberculosis hypoxia-regulated fluorescent reporter, fluorescence | AID 1159583 | fluorescence inhibition, % (no concentration beside the values);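 active means 35 to 45% if threefold the growth effect, above 45% if 1.5-fold the growth effect; inactive means the rest, general growth blockers included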;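 further: wells of about 50 µL received 100 nL stock; 0% = vehicle wells and 100% = reference inhibitor wells; whole bacteria with a GFP reporter of the hypoxia response; strong numbers were not always called active; many hits fall short of the cut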
# Sa ugtP lethal: growth inhibition of S. aureus ugtP deletion strain; S. aureus RN4220 ugtP deletion, OD600 growth, 16 h; some inactives read as strong as hits; growth inhibition, % (no concentration beside the values); 0.54% of 330,000 active; AID 1259309;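 active means z-score under -3 and OD600 up to 0.15 on both plates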;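 further: plate controls were untreated wells for no effect and antibiotic for full effect; wells of about 80 µL received 100 nL stock; the first replicate is given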
# RN4220 kill: kills Staphylococcus aureus RN4220 | inhibition, % (no concentration beside the values) | S. aureus RN4220 growth, OD600, 16 h | 0.33% of 330,000 active;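 active means z-score of -3 or lower and OD600 up to 0.18 on both plates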;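 further: plate controls were untreated cells for no effect and reference antibiotic for full effect; stock transfer was 100 nL into about 80 µL; one replicate is shown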
# Bead autofluor: compound fluorescence in toxin protease inhibitor counterscreen | 3.1% of 360,000 active | compound autofluorescence counterscreen, microsphere flow cytometry; active compounds read high | fluorescence intensity (test concentration not listed);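 active means at least 3 SD above the mean of all compounds, about 16000 in these data; inconclusive means too few beads counted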;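 further: 100 nL of 1 mM stock went into each well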
# PrP 5UTR inh: inhibition of PrP 5' UTR reporter expression | inhibition, % (test concentration not listed) | 0.35% of 340,000 active | cell-based PrP 5' UTR mRNA reporter, plate reader | AID 488862;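 active means every replicate at 50% or more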;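 further: 0 = median of the neutral control wells; tested in H4 reporter cells; numbers are from one replicate; inactives centre near -14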
# BJeLR lethal: BJeLR cell viability loss. BJeLR (HRASV12) viability, CellTiter-Glo ATP luminescence, 48 h; reference of the scale not given here. inhibition, % (test concentration not listed). 0.17% of 300,000 active;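 active means replicate mean above 50%; inconclusive means above 50% but judged a plate artefact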;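 further: 50 nL library stock added to about 25 µL; numbers are from one replicate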
# Mtb hypoxia rep growth: further read-out of Mtb hypoxia rep, marked with its call; growth inhibition, %; measured here: M. tuberculosis growth (absorbance);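 0% = vehicle and 100% = reference antibiotic; read after six days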
# Numbers without * were called inactive; ? = inconclusive; . = no result given; & = joins results of further samples. Hits appear at their usual frequency; about 4% have a hit in one of these screens.
nr	Molecule	Mtb hypoxia rep	Mtb hypoxia rep growth	Sa ugtP lethal	RN4220 kill	Bead autofluor	PrP 5UTR inh	BJeLR lethal
1	O=C(COC(=O)CCC(=O)c1ccc(Cl)cc1)NCc1ccco1	7	4	6	2.2	3373	-5	-6
2	COc1ccc(C)cc1NC(=O)CNC(c1ccccc1)c1ccccc1	-3	2	23	-4.6	4389	-22	8
3	O=C(O)c1c(Cl)c(Cl)c(Cl)c(Cl)c1C(=O)N1CCOCC1	2	1	-9	4.6	3024	-6	-5
4	COc1cccc(C(=O)/C(C#N)=N/Nc2cccc(-c3ccnc(C)n3)c2)c1	.	.	.	.	4306	-14	3
5	CNC(=O)c1cc(C(=O)c2ccccc2C(F)(F)F)c[nH]1	9	5	-4	2.7	2611	-16	8
6	C[n+]1c2n(c3ccccc31)N=C(c1ccccc1)CS2	11&2	2&9	-2&-8	1.4&6.8	3247&8742	-23&-19	9&2
7	COC(=O)Nc1ccc2c(c1)N(C(=O)CCN1CCOCC1)c1ccccc1S2	7	-7	-4	-0.5	8883	0	-10
8	Cc1ccc(S(C)(=O)=O)cc1C(=O)N1CC(C(N)=O)Oc2ccccc21 (stereo unspecified)	0	1	5	-2.0	3685	-8	-10
9	COC(=O)CNc1ccc2c(c1)OCO2	16	5	-3	-2.9	3010	-7	-1
10	CCC(=O)NC(c1ccc([N+](=O)[O-])cc1)c1c(O)ccc2ccccc12 (stereo unspecified)	5	6	-7	0.4	24260*	-20	2
11	COC(=O)C1=C(N)OC2=C(C(=O)CC(C)(C)C2)C1c1ccccc1OCC#N (stereo unspecified)	-5	10	11	-0.3	2454	-1	-1
12	CN(C)CC(=O)N1CCc2ccccc2C1	-7	0	3	2.1	4068	-15	2
13	O=C(NCCc1nc2ccc(Cl)cc2[nH]1)C1CCC(=O)N(Cc2cccc(F)c2)C1 (stereo unspecified)	.	.	.	.	6137	-13	-5
14	Oc1ccc(NCc2ccccc2OCc2ccccc2F)cc1	.	.	-1	-3.5	4622	-32	-4
15	COc1cc2c(N3CCOCC3)cc(O)c(CC(=O)Nc3ccccc3)c2cc1OC	.	.	6	-2.6	4477	-3	-6

nr	Molecule	Mtb hypoxia rep	Mtb hypoxia rep growth	Sa ugtP lethal	RN4220 kill	Bead autofluor	PrP 5UTR inh	BJeLR lethal
16	CCN1CCN(C(c2ccccc2)c2sc3nc(C)nn3c2O)CC1 (stereo unspecified)	0	7	-4	-12	6557	-12	5
17	CCOC(=O)c1c(NC(=O)C(=O)N/N=C/c2ccc(O)c(OC)c2)sc2c1CCCCC2	.	.	.	.	2449	-12	5
18	O=C(CCCCCN1C(=O)CCC1=O)Nc1ccc(Br)cc1F	.	.	9	4.7	4319	-18	4
19	O=C1C2CCCN2C(=O)N1CCCCN1CCN(c2ccc(F)cc2)CC1 (stereo unspecified)	6	1	8	2.8	8918	-25	3
20	COc1ccc(S(=O)(=O)N2CCN=C2SCc2cccc(C)c2)cc1	6	2	2	6.2	6440	-11	6
21	CC(=O)Nc1ccc(C(=O)OCC(=O)Nc2c(F)cccc2F)cc1	-3	5	7	2.1	3870	-23	-10
22	CCOc1ccc(CC(O)=C2C(=O)CC(C)(C)CC2=NCC(=O)O)cc1OCC	8	16	-7	4.3	.	.	.
23	CCOc1ccc(C=NC23CN4CN(CN(C4)C2)C3)cc1	-4	-5	5	-0.1	6244	2	-1
24	COc1cc(/C=N\NC(C)=O)ccc1OC/C=C/c1ccccc1	.	.	.	.	5160	-17	-9
25	COC(=O)C1C2c3ccccc3C(c3ccccc32)C1C(=O)OC (stereo unspecified)	17	-2	3	5.7	4186	-47	1
26	O=C1NCCCC1C(=O)NN=Cc1ccccc1O (stereo unspecified)	-2	5	15	0.9	.	.	.
27	CC1(C)Cc2c(cnn2-c2ccccc2)C(NC(=O)CCCn2cncn2)C1 (stereo unspecified)	6	13	0	-2.5	5092	7	-8
28	Cc1cccc(C)c1NC(=O)CN(C)C(=O)c1ccc(NS(=O)(=O)c2ccc3[nH]c(=O)[nH]c3c2)cc1	3	9	-1	-2.2	?	-27	-12
29	O=S(N1CCCCC1)C12CC3CC(CC(C3)C1)C2 (stereo unspecified)	6	12	4	4.8	2662	-2	-3
30	CCN(CC)C(=O)CN(c1cc2c(cc1OC)oc1ccccc12)S(=O)(=O)c1ccc(C)cc1	.	.	7	-2.3	2548	-11	-4

# Laid out differently: twelve of the compounds above
# Each structure is followed by: Mtb hypoxia rep	Mtb hypoxia rep growth	Sa ugtP lethal	RN4220 kill	Bead autofluor	PrP 5UTR inh	BJeLR lethal
(19) O=C1C2CCCN2C(=O)N1CCCCN1CCN(c2ccc(F)cc2)CC1 (stereo unspecified)
    6	1	8	2.8	8918	-25	3
(20) COc1ccc(S(=O)(=O)N2CCN=C2SCc2cccc(C)c2)cc1
    6	2	2	6.2	6440	-11	6
(21) CC(=O)Nc1ccc(C(=O)OCC(=O)Nc2c(F)cccc2F)cc1
    -3	5	7	2.1	3870	-23	-10
(22) CCOc1ccc(CC(O)=C2C(=O)CC(C)(C)CC2=NCC(=O)O)cc1OCC
    8	16	-7	4.3	.	.	.
(23) CCOc1ccc(C=NC23CN4CN(CN(C4)C2)C3)cc1
    -4	-5	5	-0.1	6244	2	-1
(24) COc1cc(/C=N\NC(C)=O)ccc1OC/C=C/c1ccccc1
    .	.	.	.	5160	-17	-9
(25) COC(=O)C1C2c3ccccc3C(c3ccccc32)C1C(=O)OC (stereo unspecified)
    17	-2	3	5.7	4186	-47	1
(26) O=C1NCCCC1C(=O)NN=Cc1ccccc1O (stereo unspecified)
    -2	5	15	0.9	.	.	.
(27) CC1(C)Cc2c(cnn2-c2ccccc2)C(NC(=O)CCCn2cncn2)C1 (stereo unspecified)
    6	13	0	-2.5	5092	7	-8
(28) Cc1cccc(C)c1NC(=O)CN(C)C(=O)c1ccc(NS(=O)(=O)c2ccc3[nH]c(=O)[nH]c3c2)cc1
    3	9	-1	-2.2	?	-27	-12
(29) O=S(N1CCCCC1)C12CC3CC(CC(C3)C1)C2 (stereo unspecified)
    6	12	4	4.8	2662	-2	-3
(30) CCN(CC)C(=O)CN(c1cc2c(cc1OC)oc1ccccc12)S(=O)(=O)c1ccc(C)cc1
    .	.	7	-2.3	2548	-11	-4

# Later entries:
nr	Molecule	Mtb hypoxia rep	Mtb hypoxia rep growth	Sa ugtP lethal	RN4220 kill	Bead autofluor	PrP 5UTR inh	BJeLR lethal
31	Cc1sc(NC(=O)c2c(F)cccc2F)nc1-c1ccccc1	11	3	10	-1.1	.	-3	10
32	CC(=O)OCn1nnc2ccccc2c1=O	5	0	-9	1.9	3182	-8	-4
33	Nc1cc(=O)[nH]c(SCC(=O)Nc2cccnc2Cl)n1	-7	10	9	2.9	3778	-2	-5
34	COC(=O)CSc1nsc(SCC(=O)OC)n1	12	14	1	6.3	4225	-24	5
35	Cc1cc(NC(=O)c2ccc(Cl)cc2Cl)no1	-3	-5	4	1.1	2896	-58	-9
36	COc1ccc(C(=O)Nc2nncs2)cc1S(=O)(=O)N1CCOCC1	10	8	7	-0.6	5520	-8	6
37	CN(C)c1cccc2c(S(=O)(=O)NCc3ccc(S(N)(=O)=O)cc3)cccc12	16	11	13	6.5	4444	-16	-5
38	CCn1c(CNC(=O)c2ccccc2Br)nnc1SCC(=O)NC1=NCCS1	2	-2	7	0.7	3747	-9	4
39	CN(c1ccc(O)cc1)S(=O)(=O)c1ccc2ccccc2c1	3	-5	1	9.0	4363	-55	-16
40	CCN(CC(=O)NC1CCS(=O)(=O)C1)S(=O)(=O)c1c(C)c(C)cc(C)c1C (stereo unspecified)	-14	2	-3	21	6056	-20	-2
41	Cc1cccc(-c2nc(CS(=O)CC(=O)NCc3cccs3)c(C)o2)c1 (stereo unspecified)	5	16	-4	-14	4736	-14	4
42	CC1=CC2=NC(=O)/C(=C\c3ccc(-c4cccc(Cl)c4)o3)C(=N)N2O1	14	2	-7	0.1	2145	-25	18
43	COc1ccc2ccc(O)c(CN3CCN(S(=O)(=O)c4cc([N+](=O)[O-])ccc4C)CC3)c2c1	0	-18	4	2.9	3487	-25	.
44	COc1ccccc1C(=O)NC(=O)COC(=O)CNC(=O)c1ccc(Cl)cc1Cl	1	-4	3	1.7	5525	-6	-1
45	CCc1noc(C)c1C(=O)N1CCN(S(=O)(=O)c2cccc(C(F)(F)F)c2)CC1	2	6	5	3.4	8257	-10	.

nr	Molecule	Mtb hypoxia rep	Mtb hypoxia rep growth	Sa ugtP lethal	RN4220 kill	Bead autofluor	PrP 5UTR inh	BJeLR lethal
46	COc1ccc(S(=O)(=O)N2CCC(C(=O)Nc3ccc4c(c3)OCCO4)CC2)cc1OC	4	2	3	-1.0	16044	-4	9
47	Cc1cc(N2CCN(c3nnnn3-c3ccccc3)CC2)n2ncnc2n1	.	.	2	1.7	4811	-11	-6
48	O=C(COc1cccc(Cl)c1)Nc1cc(S(=O)(=O)N2CCOCC2)ccc1N1CCOCC1	-1	-1	0	2.3	4751	-22	3
49	CCOC(=O)CN(C(=O)Cn1nnc2ccccc21)C(C(=O)NCCOC)c1ccccc1C (stereo unspecified)	.	.	4	3.7	3309	-8	6
50	COc1nnc(-c2ccc(N3CCOCC3)c(NC(=O)c3ccc(C)cc3)c2)c2ccccc12	.	.	8	5.5	4775	-21	1
51	CCN(CC(=O)Nc1c(F)cccc1F)C(=O)C1CCN(S(=O)(=O)c2ccc(C)cc2C)CC1	8	-3	2	2.9	?	0	8
52	COc1cc2c(c3oc(-c4ccccc4)cc(=O)c13)C=CC(C)(C)O2	.	.	-22	0.4	5784	-4	5
53	CCOC(=O)N1CCN(C(=O)c2cc3ccccc3o2)CC1	4	12	-4	-2.9	3564	-36	-5
54	CCN(CC)S(=O)(=O)c1ccc(N2CCCC2)c(NC(=O)c2ccncc2)c1	-11	0	13	5.0	3129	-30	4
55	CNC(=O)NNC(=O)c1csc(-c2ccc(C(F)(F)F)cc2Cl)n1	9	-4	0	1.5	?	6	7
56	COc1cccc(CC(=O)NNC(=O)c2c(-c3ccccc3)noc2C)c1	7	-2	3	3.3	.	.	-13
57	CC(OC(=O)/C(C#N)=C/c1ccc(N(C)C)cc1)C(=O)NCc1ccco1 (stereo unspecified)	.	.	.	.	6213	-18	-11
58	O=C(Cc1cccc2ccccc12)NN=Cc1ccc2cccc(O)c2n1	-5	7	-8	0.1	.	.	.
59	O=C(Nc1ccccc1-c1ccccc1)C1CCCCC1	3	9	2	2.4	2445	-13	2
60	CCOc1ccccc1-n1c(O)c(C=NCc2ccc3c(c2)OCO3)c(=O)[nH]c1=O	9	0	7	5.0	3042	-12	-3

nr	Molecule	Mtb hypoxia rep	Mtb hypoxia rep growth	Sa ugtP lethal	RN4220 kill	Bead autofluor	PrP 5UTR inh	BJeLR lethal
61	CC(C)Oc1ccc(C(=O)Nc2ccc(N(C)C)cc2)cc1	4	18	-1	-2.4	10063	-22	6
62	CCOC(=O)C1=C(COC(=O)CSc2ccc(C)cc2C)NC(=O)NC1C (stereo unspecified)	5	-1	5	13	?	-12	.
63	COC(=O)c1cc(S(=O)(=O)NCCc2ccc(Cl)cc2)c[nH]1	-6	1	-10	1.6	5422	-31	3
64	Cc1ccccc1OCC(=O)NCC(c1cccs1)N1CCOCC1 (stereo unspecified)	-4	-2	-5	-2.3	6132	-22	2
65	O=C(Cc1ccc(S(=O)(=O)N2CCOCC2)s1)Nc1ccc(N2CCOCC2)cc1	11	6	5	3.2	4056	-18	-7
66	CC(=O)c1ccc(-n2c(C)ccc2-c2ccccc2)cc1	8	8	38	3.8	23002*	-55	-5
67	COc1cc(C(C)=NN2CCOCC2)cc(OC)c1OC	10	12	7	-1.0	.	.	.
68	O=C(NCc1ccccn1)Nc1ccccc1Cl	13	12	13	3.6	5321	-36	4
69	CN(C)C(Cc1ccc(C#N)cc1)C(=O)c1ccccc1 (stereo unspecified)	7	1	3	1.8	8023	-23	-12
70	O=C(C1=CC(c2ccc(C(F)(F)F)cc2)CC(OCc2ccc(CO)cc2)O1)N1CCN(Cc2ccccc2)CC1 (stereo unspecified)	-4&3	4&4	-3&-2	22&24	.	.	.
71	CCC(=O)N1CCc2cc(S(=O)(=O)NC(Cc3ccccc3)C(=O)Nc3nccs3)ccc21 (stereo unspecified)	0	6	-1	4.5	2750	-28	4
72	COC(=O)c1cc(S(=O)(=O)Nc2cccc(-c3cnco3)c2)oc1C	6	5	7	6.7	3600	-51	5
73	CN1CCN(C(=O)/C=C\C(=O)O)CC1	-4	4	3	2.6	2637	-5	-20
